HCMV NEC inh: inhibitors of HCMV UL50-UL53 interaction, biochemical, HTRF; AID 1918969, 2023; 0.15% of 190,000 active; HCMV UL50-UL53 nuclear egress complex (human cytomegalovirus); normalized percent inhibition; inhibition, % (no concentration beside the values);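 active means both replicates at 50% or more, plus weaker picks with an unusually low signal ratio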;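 further: stock transfer was 100 nL into about 20 µL; 0% = negative control wells and 100% = wells with untagged competitor protein; inactives centre near -12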
GIV-Gai inh: inhibitors of GIV peptide binding to Galpha-i3, primary screen, biochemical, fluorescence polarization, FITC-GIV GBA peptide, rat Galphai3; Guanine nucleotide-binding protein G(i) subunit alpha-3 (Rattus norvegicus), P08753; 90 min; stronger effect = lower value; scaled: aluminum fluoride 0%, vehicle 100%; percent of control (FP), % (test concentration not listed); 0.42% of 210,000 active; AID 1224905, 2016;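 active means replicate mean at 85% of control or lower, very high polarization wells dropped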;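 further: wells of about 15 µL received 100 nL stock; the first replicate is given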
Target sequence (P08753 whole entry, looked up): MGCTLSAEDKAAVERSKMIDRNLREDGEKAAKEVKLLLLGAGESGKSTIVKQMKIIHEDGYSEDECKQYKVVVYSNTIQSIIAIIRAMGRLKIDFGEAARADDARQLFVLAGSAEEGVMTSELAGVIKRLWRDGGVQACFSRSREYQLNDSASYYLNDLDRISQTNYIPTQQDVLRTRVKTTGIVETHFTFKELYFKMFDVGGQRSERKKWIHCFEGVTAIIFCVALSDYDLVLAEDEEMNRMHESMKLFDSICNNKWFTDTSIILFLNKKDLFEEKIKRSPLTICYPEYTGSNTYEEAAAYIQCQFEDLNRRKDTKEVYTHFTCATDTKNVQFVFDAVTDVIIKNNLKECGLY
Sa growth 42C: S. aureus growth inhibition at 42 and 30 °C, primary screen, LtaS inhibitor project, RN4220, two temperatures | OD600, 20 h, 42 °C; stronger effect = lower value | relative growth, % (concentration not given with the values) | 0.53% of 170,000 active | AID 720641, 2013;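 active means growth at 42 °C up to 50% and 20 or more points under that at 30 °C, or under 10% at both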;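 further: 300 nL library stock went into each well; scaled to the means of positive and negative controls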
Sa growth 42C second temp: also measured in Sa growth 42C; calls as there; relative growth, %; measured here: growth at 30 °C;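 optical density after 20 h as mean of two plates; 100% = untreated growth and lower means inhibition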
* hit, by the source's call; . = no result given; & = joins results of further samples.

Abbreviations: A = HCMV NEC inh; B = GIV-Gai inh; C = Sa growth 42C; D = Sa growth 42C second temp
> COc1ccc(C(CNc2ncnc3sccc23)N2CCCC2)cc1 (configuration not stated)
  A: 14 | B: . | C: 105 | D: 96

> Cc1cc(C)cc(NC(=O)N2CCC(CN3CCCCC3)CC2)c1
  A: -8&-2 | B: 103&97 | C: 96 | D: 93

> O=S(=O)(/C=C/c1ccccc1)NC1CCCCC1
  A: -30 | B: . | C: 95 | D: 83

> N#Cc1ccc(CSCC(=O)NN=C2CCCC2)cc1
  A: -32 | B: 99 | C: 100 | D: 81

> CN(NC(=S)Nc1ccccc1)c1ccc(Cl)cc1
  A: -11 | B: . | C: 110 | D: 90

> O=C(NC1CCCCC1O)c1ccccc1C(F)(F)F (configuration not stated)
  A: -27 | B: . | C: 95 | D: 87

> c1ccc(-c2nn3c(C4COc5ccccc5O4)nnc3s2)nc1 (configuration not stated)
  A: . | B: 106 | C: 97 | D: 79

> Cc1ccc(C)c(NC(=O)CSc2c3c(nc4ccc(Cl)cc24)CCCC3)c1
  A: -15 | B: 108 | C: 99 | D: 88

> Cc1ccc(-n2c(SCc3ccccc3C)nc3[nH]ncc3c2=O)cc1C
  A: . | B: 98 | C: 32 | D: 32

> Cc1ccc(C)c(-n2c(CCC(=O)O)ccc2-c2ccc(Cl)cc2)c1
  A: -31 | B: 111 | C: 101 | D: 71

> CC(C)(C)C1CCc2c(sc3nc(CCC(=O)N4CCC(C(N)=O)CC4)[nH]c(=O)c23)C1 (configuration not stated)
  A: -4 | B: 96 | C: . | D: .

> CCOc1ccccc1C1C2=C(CC(c3ccc(O)c(OC)c3)CC2=O)Nc2onc(C)c21 (configuration not stated)
  A: -1 | B: 106 | C: . | D: .

> Cc1ccc(CNC(=O)Cn2ccn(Cc3ccccc3)c(=O)c2=O)cc1
  A: . | B: 102 | C: 104 | D: 100

> COc1ccc2c(c1)C(=NN)c1cc(OC)ccc1-2
  A: . | B: 104 | C: 143 | D: 92

> CCCNc1ccc(-c2nc(-c3ccccn3)no2)cc1[N+](=O)[O-]
  A: -4 | B: 103 | C: 100 | D: 89

> O=C(O)c1ccc2c(c1)-c1ccccc1C2
  A: -21 | B: . | C: 62 | D: 62

> CC(C)Cc1cc(-c2nnc3sc(-c4cccc(F)c4)nn23)n[nH]1
  A: -15 | B: 101 | C: . | D: .

> CCOc1ccc(CCNC(=O)c2nnc(CS(=O)(=O)c3ccccc3)o2)cc1OCC
  A: 12 | B: 101 | C: 96 | D: 99

> Cc1cc(NC(=O)CSc2nc3ccsc3c(=O)n2CCCC(=O)NCc2ccc3c(c2)OCO3)n[nH]1
  A: -15 | B: 102 | C: 102 | D: 96

> Cc1cc(C2=NNC(=Nc3ccccc3)SC2)c(C)n1Cc1ccco1
  A: -26 | B: . | C: 72 | D: 94

> Cc1ccc(C)c(NC(=O)c2cc(S(=O)(=O)N3CCCCCC3)ccc2F)c1
  A: . | B: 103 | C: 119 | D: 87

> c1ccc(CCNc2nc3ccccc3s2)cc1
  A: -22 | B: . | C: 118 | D: 88

> CC(C)NC(=O)N1CC2CCCN2c2ccccc21 (configuration not stated)
  A: -42 | B: 123 | C: 92 | D: 74

> Cc1ccc(S(=O)(=O)N2CCCc3cc(NS(=O)(=O)c4ccc(F)c(C)c4)ccc32)cc1
  A: . | B: 105 | C: 93 | D: 88

> CC(C)C(c1nnnn1C1CCCC1)N1CCOCC1 (configuration not stated)
  A: -22 | B: 103 | C: 88 | D: 86

Single entries from the entries so far:
Sa growth 42C result of CCOc1ccc(CCNC(=O)c2nnc(CS(=O)(=O)c3ccccc3)o2)cc1OCC is entered as 96
HCMV NEC inh result of CC(C)(C)C1CCc2c(sc3nc(CCC(=O)N4CCC(C(N)=O)CC4)[nH]c(=O)c23)C1 (configuration not stated) is entered as -4
Sa growth 42C second temp result of Cc1cc(C2=NNC(=Nc3ccccc3)SC2)c(C)n1Cc1ccco1 is entered as 94

Structures listed so far that have a halogen, in the order listed:
Abbreviations: A = HCMV NEC inh; B = GIV-Gai inh; C = Sa growth 42C; D = Sa growth 42C second temp
> CN(NC(=S)Nc1ccccc1)c1ccc(Cl)cc1
  A: -11 | B: . | C: 110 | D: 90

> O=C(NC1CCCCC1O)c1ccccc1C(F)(F)F (configuration not stated)
  A: -27 | B: . | C: 95 | D: 87

> Cc1ccc(C)c(NC(=O)CSc2c3c(nc4ccc(Cl)cc24)CCCC3)c1
  A: -15 | B: 108 | C: 99 | D: 88

> Cc1ccc(C)c(-n2c(CCC(=O)O)ccc2-c2ccc(Cl)cc2)c1
  A: -31 | B: 111 | C: 101 | D: 71

> CC(C)Cc1cc(-c2nnc3sc(-c4cccc(F)c4)nn23)n[nH]1
  A: -15 | B: 101 | C: . | D: .

> Cc1ccc(C)c(NC(=O)c2cc(S(=O)(=O)N3CCCCCC3)ccc2F)c1
  A: . | B: 103 | C: 119 | D: 87

> Cc1ccc(S(=O)(=O)N2CCCc3cc(NS(=O)(=O)c4ccc(F)c(C)c4)ccc32)cc1
  A: . | B: 105 | C: 93 | D: 88

Continued.
Abbreviations: A = HCMV NEC inh; B = GIV-Gai inh; C = Sa growth 42C; D = Sa growth 42C second temp
> CCN(CC)C(=O)CSc1nnc(COc2cccc(OC)c2)n1CC
  A: -64 | B: 99 | C: 103 | D: 84

> CCc1ccc(NC(=O)c2ccc3c(=O)n4nc(Nc5ccccc5C)sc4nc3c2)cc1
  A: . | B: 101 | C: 123 | D: 83

> O=C(NCC1OCCc2ccccc21)C1COc2ccccc2O1 (configuration not stated)
  A: -16 | B: 99 | C: . | D: .

> O=C(NC1CCCC1)c1ccc2c(=O)n(Cc3ccco3)c(=O)n(Cc3cccc(Cl)c3)c2c1
  A: -16 | B: 99 | C: 101 | D: 89

> COc1ccc(S(=O)(=O)N(Cc2cc3cc4c(cc3[nH]c2=O)OCCO4)C2CCCC2)cc1
  A: -28 | B: 97 | C: 91 | D: 83

> O=C(CN(Cc1ccco1)C(=O)c1cc(=O)[nH]c2ccccc12)Nc1ccccc1C(F)(F)F
  A: -16 | B: . | C: 102 | D: 94

> CCc1cccc(NC(=O)c2c(N3CCCC3=O)c3cc(C)ccc3n2C)c1
  A: . | B: 99 | C: 71 | D: 87

> Cc1c(OCc2ccc(C(=O)O)o2)ccc2c(-c3ccccc3)cc(=O)oc12
  A: -87 | B: 103 | C: 67 | D: 65

> O=C1N=C(N2CCCCC2)S/C1=C\c1cccs1
  A: -53 | B: . | C: 118 | D: 90

> Cc1cccc(C(=O)Nc2ccc(C(=O)OCc3cc(=O)n4c5c(sc4n3)CCCC5)cc2)c1
  A: . | B: 102 | C: 88 | D: 93

> CCOc1ccc2cc(C3CC(c4ccc(C)cc4)=NN3C(=O)CCC(=O)O)c(=O)[nH]c2c1 (configuration not stated)
  A: -19 | B: 102 | C: . | D: .

> Cc1c2c(n3c(nc4ccccc43)c1C#N)N(Cc1cccnc1)CC2
  A: -8 | B: 107 | C: 97 | D: 96

> COc1ccccc1NC(=O)C(C)Nc1ccccc1SC (configuration not stated)
  A: -14 | B: . | C: 107 | D: 76

> CC(=O)Nc1cccc(-c2csc(Nc3cccc(O)c3)n2)c1
  A: -12 | B: . | C: 80 | D: 59

> Cc1ccsc1CNCCNC(=O)c1nonc1N
  A: -17 | B: 101 | C: . | D: .

> CC(C)c1ccc(CNC(=O)c2ccc(=O)[nH]c2)cc1
  A: -12 | B: . | C: 104 | D: 87

> CC(=O)N1CCCc2cc(S(=O)(=O)N3CCC(C(=O)NCc4ccccc4)CC3)ccc21
  A: . | B: 103 | C: 135 | D: 89

> Cc1ccccc1Cn1nc(-c2ccc3c(c2)OCO3)ccc1=O
  A: -50 | B: 104 | C: . | D: .

> COCCCNC(=O)C1CCN(C(=O)c2cccn2-c2cccnc2)CC1
  A: 0 | B: 105 | C: . | D: .

> CC(=O)/C=C1\C(=O)N(C)c2ccccc21
  A: 9 | B: 103 | C: . | D: .

> COc1ccc(C2=NN3C(C2)c2ccccc2OC3c2ccc(OCc3ccccc3)cc2)cc1 (configuration not stated)
  A: -14 | B: 98 | C: . | D: .

> CC1(C)CNC(=O)c2sc(NC(=O)c3ccccc3Cl)nc2C1
  A: -1 | B: . | C: 103 | D: 94

> Cc1ccc(CNc2ccc3c(c2)ncn3C2CCCCC2)cc1
  A: . | B: 101 | C: -0.5* | D: 0.0*

> CCOc1ccc(OCCCCN(C)C)cc1
  A: 1 | B: 111 | C: 95 | D: 96

> CC(=O)Oc1ccc(OC(C)=O)c(S(=O)(=O)c2ccc(Cl)c(Cl)c2)c1
  A: . | B: 103 | C: 109 | D: 86

> CSc1ncccc1C(=O)OCc1cccc(C(F)(F)F)c1
  A: -1 | B: . | C: 106 | D: 90

> CCOc1ccc(C(=O)Nc2ccc3oc(-c4cccnc4)nc3c2)cc1
  A: -14 | B: 105 | C: 101 | D: 90

> N#Cc1c(N)n(CCN)c2nc3ccccc3nc12
  A: . | B: 310 | C: 121 | D: 68

> Cc1ccc(OC(=O)c2cc3c(C)nn(-c4ccccc4)c3s2)cc1
  A: -9 | B: 106 | C: 93 | D: 83

> O=C(CN1C(=O)COc2ccc(S(=O)(=O)N3CCCCCC3)cc21)N1CCN(c2ccccc2)CC1
  A: -22 | B: 98 | C: 110 | D: 81

> CC1CN=C(N(C(=O)Nc2ccccc2)c2cccc(C(F)(F)F)c2)S1 (configuration not stated)
  A: . | B: 99 | C: 100 | D: 86

> COCc1cc(C)nc2sc3c(c12)NCN(c1ccccc1)C3=O
  A: -49 | B: 108 | C: 109 | D: 99

> Cn1c(CN(c2ccc(F)cc2)S(C)(=O)=O)nnc1SCC(=O)NC1CCCCC1
  A: -27 | B: 99 | C: . | D: .

> CCC(C)c1ccc(-n2c(=O)c3ccccc3n3c(SCC(=O)NC)nnc23)cc1 (configuration not stated)
  A: 15 | B: . | C: 104 | D: 98

> CCN(CC)Cc1ccc(NC(=O)c2cccc(C)c2)cc1
  A: 0 | B: 106 | C: 98 | D: 98

> CCOC(=O)C1=C(C)N=c2s/c(=C/c3cc(OC)c(OC)c(OC)c3)c(=O)n2C1c1cc(OC)ccc1OC (configuration not stated)
  A: -15 | B: 103 | C: . | D: .

> CCCCn1c(O)c(C2=NN(C(C)=O)C(c3ccc4c(c3)OCO4)C2)c(=O)[nH]c1=S (configuration not stated)
  A: -15 | B: 96 | C: . | D: .

> CCN(Cc1ccncc1)C(=O)CC1(CC(=O)O)CCCC1
  A: -35 | B: . | C: 112 | D: 84

> Cc1ccc(Nc2c(-c3ccc(N4CCOCC4)cc3)nc3c(C)cccn23)cc1
  A: 0&-23 | B: 97&96 | C: 91 | D: 92

> CCN(Cc1nnc(-c2ccccc2)o1)C1CCCCC1
  A: -10 | B: 101 | C: 96 | D: 82

> O=C(Nc1ccc2c(c1)CCC2)C1CC(=O)N(CCc2c[nH]c3ccc(F)cc23)C1 (configuration not stated)
  A: -6 | B: 100 | C: . | D: .

> CCCN1Cc2cccc(C(=O)Nc3ccc(S(=O)(=O)N4CCCCCC4)cc3)c2C1=O
  A: . | B: 97 | C: 99 | D: 94

> COc1ccc(CCNC(=O)c2c(O)c3ccccc3[nH]c2=O)cc1OC
  A: -19 | B: 104 | C: . | D: .

> Cc1cc(C)nc(SC2=C(Nc3ccc(O)cc3)C(=O)N(Cc3ccccc3)C2=O)n1
  A: -76 | B: . | C: 106 | D: 85

> Cc1noc2c1C(c1ccc(F)cc1)C1=C(CC(c3ccc(Cl)cc3)CC1=O)N2 (configuration not stated)
  A: -15 | B: 106 | C: . | D: .

> CCOc1ccc(C)cc1S(=O)(=O)n1c(C)nc2ccccc21
  A: -28 | B: 97 | C: 89 | D: 96

> O=C(Cc1ccccc1)N=Nc1c(O)[nH]c2ccccc12
  A: -104 | B: 97 | C: 80 | D: 81

> CCCNc1c(NS(=O)(=O)c2ccc3[nH]c(=O)oc3c2)c(=O)oc2ccccc12
  A: -12 | B: 115 | C: 98 | D: 96

> CCN(CC)CCCNC(=O)C1CCN(S(=O)(=O)CC)CC1
  A: . | B: 97 | C: 103 | D: 96

> COC(=O)c1nc(S(C)(=O)=O)ncc1Cl
  A: -43 | B: . | C: 72 | D: 86

> COc1ccc(CNCCSc2nnnn2C)c(OC)c1
  A: -7 | B: 98 | C: . | D: .

> O=C(N/C(=C\c1ccc(F)cc1)C(=O)N1CCOCC1)c1ccccc1
  A: -29 | B: 95 | C: 107 | D: 79

> Nc1ncc(OCc2ccccc2)c(=O)[nH]1
  A: -24 | B: 106 | C: 110 | D: 84
